# CBX7 inh – inhibitors of human CBX7 binding to H3K27me3 peptide | AID 1224903 | AlphaScreen His6-CBX7 / biotin-H3K27me3 peptide binding; stronger effect = lower value | normalised signal (fraction of DMSO) (no concentration beside the values) | O95931 | 1.1% of 66,000 active; in the data active = normalised signal below about 0.5;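 also: 100 nL library stock added to about 20 µL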
# Target sequence (O95931 whole entry, looked up): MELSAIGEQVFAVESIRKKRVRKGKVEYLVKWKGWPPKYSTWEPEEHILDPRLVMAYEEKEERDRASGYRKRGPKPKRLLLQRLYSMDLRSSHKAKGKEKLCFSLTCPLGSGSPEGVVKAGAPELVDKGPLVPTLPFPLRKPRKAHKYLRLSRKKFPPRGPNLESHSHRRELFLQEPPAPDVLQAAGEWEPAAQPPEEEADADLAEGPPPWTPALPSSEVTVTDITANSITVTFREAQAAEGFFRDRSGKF
# CBX7 inh z-score – also measured in CBX7 inh; calls as there; z-score; measured here: z-score of CBX7 signal; some inactives read as strong as hits; reference of the scale not given here;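 same signal on another scale; lower means less binding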
# * hit, by the source's call; & = joins results of further samples. An excerpt (hit frequency here may not be typical).
# Each structure is followed by: CBX7 inh	CBX7 inh z-score
- CC1CN(C(=O)Nc2ccc3snnc3c2)c2ccccc21 (stereo not drawn)
 : 0.8	-3.7
- CCN(CCN1C(=O)c2ccccc2C1C(=O)NC1CCCCCC1)c1ccccc1 (stereo not drawn)
 : 0.96	-1.5
- Cc1onc(-c2ccccc2)c1C(=O)NCCc1ccccc1
 : 1	1
- CC1CCN(S(=O)(=O)c2ccc3c(c2)N(CC(=O)NCC2CCCO2)C(=O)CS3)CC1 (stereo not drawn)
 : 0.85	-1.6
- Cc1oc(-c2ccc(Cl)cc2)nc1C(=O)NCCCN1CCOCC1
 : 1.1	0.13
- CCCc1cc(C(=O)Nc2cccnc2Cl)no1
 : 1.1	1.8
- COc1ccc(-c2nc(Nc3cccc(C)c3)c3ccccc3n2)cc1OC
 : 1.1	3.2
- COc1ccc(CNC(=O)C2CCN(c3nc4ccc(C)cc4s3)CC2)cc1
 : 0.95	-1.6
- CCCNC(=O)Cn1cnc2sc(C(=O)NCc3ccccc3OC)c(C)c2c1=O
 : 0.99	-0.45
- Clc1ccc(Cn2c(-c3cncs3)nc3ccccc32)c(Cl)c1
 : 0.98	-0.11
- COc1ccc(C2(C(=O)N3CCCC3)CCCC2)cc1OC
 : 0.92	-0.93
- COc1cc(NC(=O)CCCOc2ccc(Cl)cc2Cl)c2ncccc2c1
 : 0.97	-0.33
- CCOc1ccc(S(=O)(=O)N(CC)CC)cc1-c1nc2c(C(C)(C)C)nn(C)c2c(=O)[nH]1
 : 1	0.18
- O=C(CCn1nc(-c2ccc(Cl)cc2)ccc1=O)NC1CCCC1
 : 0.98	-0.72
- Cc1ccc2nc(-c3ccc(NC(=O)c4cccnc4Cl)cc3)sc2c1
 : 1	0.059
- CC1(C)CC(=O)c2c(nn(-c3ccccc3)c2-c2ccccn2)C1
 : 0.97	-1.1
- Cc1ccc(-c2nc3ncccn3c2Nc2ccc3c(c2)OCO3)cc1
 : 0.99	-0.34
- N#Cc1ccccc1NC(=O)c1cc2c(s1)-c1ccccc1OC2
 : 1.2	5.1
- O=C(CSc1nnc(Cc2cc(=O)[nH]c(=O)[nH]2)n1-c1ccc(Cl)cc1)N1CCOCC1
 : 1	1.3
- CCCN(CCC)C(=O)C(Cc1ccccc1)NS(=O)(=O)c1ccc2c(c1)CCC(=O)N2 (stereo not drawn)
 : 0.94	-1.4
- Fc1ccc(-c2nnc3ccc(NCCCN4CCOCC4)nn23)cc1
 : 0.99	-0.096
- COc1ccc(C(=O)Nc2ccc(S(=O)(=O)Nc3nccnc3OC)cc2)cc1
 : 0.99	-0.47
- O=C(NCc1ccccc1Cl)C1CCC(=O)N1Cc1ccc(F)cc1 (stereo not drawn)
 : 1	0.68
- COc1cccc(NC(=O)N2CCC(N(C)C3CCCCC3)CC2)c1
 : 1.1	2.2
- CC(C)Cn1cc(C(=O)N2CCC(Cc3ccccc3)CC2)c2c3ccccc3n(C)c2c1=O
 : 0.94	-1.1
- CCOCCCNC(=O)c1csc2c1CCCC2
 : 1	1.3
- CCOc1cc2c(cc1OC)C(c1ccc(CC)cc1)NCC2 (stereo not drawn)
 : 1.1	1.5
- CCCN1Cc2cccc(C(=O)NC3CCCC3)c2C1=O
 : 1	0.022
- COc1cccc(-c2nc(CSCC(=O)NCc3ccc(C)cc3)c(C)o2)c1
 : 1.1	0.83
- CCc1ccc(CNC(=O)CN2C(=O)C(CC)Oc3ccccc32)cc1 (stereo not drawn)
 : 1.2	1.6

# Single values from the list:
# O=C(NCc1ccccc1Cl)C1CCC(=O)N1Cc1ccc(F)cc1 (stereo not drawn) – CBX7 inh z-score = 0.68
# COc1cccc(-c2nc(CSCC(=O)NCc3ccc(C)cc3)c(C)o2)c1 – CBX7 inh = 1.1
# CCOc1cc2c(cc1OC)C(c1ccc(CC)cc1)NCC2 (stereo not drawn) – CBX7 inh = 1.1
# CC1(C)CC(=O)c2c(nn(-c3ccccc3)c2-c2ccccn2)C1 – CBX7 inh = 0.97

# The listing continues:
# Each structure is followed by: CBX7 inh	CBX7 inh z-score
- COc1ccc(-n2ccnc2SCC(=O)Nc2ccc(F)cc2)cc1
 : 0.82	-0.24
- Cc1oc(-c2ccccc2F)nc1CN1CCCC(C(=O)NCc2ccc(Cl)cc2)C1 (stereo not drawn)
 : 1	-0.1
- CCOc1ccc2nc(NC(N)=NS(=O)(=O)c3ccc(C)cc3)nc(C)c2c1
 : 1.1	1.3
- Cc1nc2c(-c3ccc(F)cc3)c(C)nn2c(C)c1CCC(=O)Nc1ccc(F)cc1F
 : 1.1	0.4
- Cc1ccc(S(=O)(=O)N2CC=C(C(=O)NCCC3=CCCCC3)CC2)cc1
 : 0.97	-0.29
- COc1ccc(-c2c(C)nn3c(N4CCC(Cc5ccccc5)CC4)cc(C)nc23)cc1OC
 : 0.95	-1.5
- COc1ccc(-c2c(C)nn3c(N4CCC(C(=O)Nc5nccs5)CC4)cc(C)nc23)cc1OC
 : 0.86	-6.5
- Cc1nc2cc(-c3cccc(F)c3)nn2c(C)c1CCC(=O)N1CCCCC1
 : 1	0.37
- CCOc1ccc2nc(N3CCC(C(=O)N4CCCCC4)CC3)sc2c1
 : 0.92	-2.2
- Cc1cc(Cl)ccc1OC1C(=O)N(c2ccc(F)cc2)C1c1ccc2c(c1)OCO2 (stereo not drawn)
 : 0.94	-0.49
- Cc1cccc(C(=O)N(Cc2nc(-c3cccc(C)c3)no2)C(C)C)c1
 : 0.98	-0.44
- CC1CCC[C@@H](C)N1C(=O)Cc1ccc(NC2=NC3CS(=O)(=O)CC3S2)cc1 (stereo partly drawn)
 : 1	1.1
- O=C(Cn1nc(Cc2ccncc2)c2ccccc2c1=O)NCc1ccc(F)cc1
 : 1.1	1.4
- CC(C)N(CCCNC(=O)C1CCN(c2nnc(-n3cccc3)s2)CC1)Cc1ccccc1
 : 1	0.087
- CCOC(=O)c1cnc2c(ccc3ccccc32)c1NCCN1CCOCC1
 : 1.2	4.6
- OC(COCc1ccc(Cl)cc1)CN1CCN(c2ccccc2)CC1 (stereo not drawn)
 : 0.95	-1.4
- CCOc1ccc(-n2cc(-c3ccccc3)nc2SCC(=O)Nc2ccccc2Cl)cc1
 : 0.8	-6.7
- CCOC(=O)N1CCN(c2c(NCC3CCCO3)c(=O)c2=O)CC1 (stereo not drawn)
 : 1	0.68
- COc1cccc(CC(=O)Nc2ccc3nc(N4CCCCC4)cc(C)c3c2)c1
 : 0.85	-2.7
- O=C(Nc1ccc(Cl)c(-c2nc3ccccc3o2)c1)c1cccnc1
 : 1.1	1.3
- CC(=O)Nc1ncc(Cc2cccc(Cl)c2Cl)s1
 : 0.96	-0.52
- CCOC(=O)c1cccc(NC(=O)Cc2c(C(=O)O)[nH]c3ccc(Cl)cc23)c1
 : 1.2	1.9
- COc1ccc(CCNC(=O)Cn2c(=O)n(-c3ccccc3)c(=O)c3sccc32)cc1OC
 : 1.1	1.2
- Cc1cc(C(=O)NCCN2CCN(c3cccc(C)c3C)CC2)n(-c2ccccc2)n1
 : 1	0.13
- O=C(CSc1nnc(Cc2cc(=O)[nH]c(=O)[nH]2)n1-c1ccc(Cl)cc1)NC1CCCC1
 : 1	-0.0042
- CCc1ccc(NC(=O)CCC(=O)Nc2ccc3nc(N4CCN(C)CC4)cc(C)c3c2)cc1
 : 1	0.63
- CCc1ccc(NC(=O)Cc2cn(C)c3ccccc23)cc1
 : 0.64	-7.7
- COc1ccc2c(c1)CCc1sc(NC(=O)c3ccccc3Br)nc1-2
 : 0.94	-0.86
- Cc1cc(C)cc(Nc2cc(C(=O)NCCc3ccc(Cl)cc3)c3ccccc3n2)c1
 : 1.4	6.6
- O=C(NCC1CCCO1)c1cc(-c2cccnc2)nc2ccccc12 (stereo not drawn)
 : 1.1	1.1

# One compound at a time (already shown).
# Shown for COc1ccc2c(c1)CCc1sc(NC(=O)c3ccccc3Br)nc1-2 = CBX7 inh: 0.94; CBX7 inh z-score: -0.86
# Shown for O=C(Nc1ccc(Cl)c(-c2nc3ccccc3o2)c1)c1cccnc1 = CBX7 inh: 1.1; CBX7 inh z-score: 1.3

# (more compounds)
# Each structure is followed by: CBX7 inh	CBX7 inh z-score
- COc1ccc(CCNC(=O)CSc2nnc(-c3ccncc3)o2)cc1OC
 : 1.1	0.17
- COc1cccc(-c2nnc(SCc3cc(C(=O)O)ccc3C)o2)c1
 : 0.99	-0.4
- Cc1nc(N2CCCCC2)c2c3c(sc2n1)CCCC3
 : 0.95	-0.51
- CCCCc1ccc(Nc2nc(CC(=O)O)cs2)cc1
 : 0.81	-0.74
- CC(C)OCc1ccc(O)c2ncccc12
 : 0.0041*	-27*
- COc1ccc(NC(=O)NCCN2CCN(c3cccc(Cl)c3)CC2)cc1
 : 1	0.54
- CCn1cc(C(=O)N2CCN(C3CCCCC3)CC2)c(=O)c2ccc(C)nc21
 : 1	0.11
- CCCN1C(=O)C(O)(CC(=O)c2ccc(C(C)C)cc2)c2cc(Br)ccc21 (stereo not drawn)
 : 0.14*	-0.97*
- CC1CCN(S(=O)(=O)c2ccc3ncn(CC(=O)NCCN4CCOCC4)c(=O)c3c2)CC1
 : 1	0.46
- Cc1ccccc1NC(=O)C(Cc1ccccc1)NS(=O)(=O)c1cccs1 (stereo not drawn)
 : 1	1.1
- CCCCOc1ccc(C(C)NC(=O)CSCc2nc(-c3ccc(OC)cc3)oc2C)cc1 (stereo not drawn)
 : 0.6	-2.5
- Cc1nnn(C23CC4CC(CC(CC(=O)Nc5cccc(F)c5)(C4)C2)C3)n1
 : 1.1	1.7
- CC(NC(=O)CCNS(=O)(=O)c1ccc2c(c1)CCC(=O)N2)c1ccccc1 (stereo not drawn)
 : 1.1	2.6
- Cc1ccc(-c2noc(COc3ccc(C)cc3C)n2)cc1
 : 1.4	0.51
- Cc1ncc(CO)c2cc(-c3nnc(Nc4ccc5c(c4)OCO5)s3)c(=O)oc12
 : 0.92	-1.4
- Cc1cc(N2CCC(C)CC2)nc2ccc(NC(=O)CCC(=O)N3CCOCC3)cc12
 : 1.1	3.5
- Cc1cc(C)c(NC(=O)C2CCCN2CCCN(C)C)c(C)c1 (stereo not drawn)
 : 1.1&1.1	0.62&2.6
- Cc1ccc(Nc2ncc(F)c(Nc3ccc(C)cc3C)n2)c(C)c1
 : 0.56	-9.4
- CC(C)OC(=O)c1nnn(-c2nonc2N)c1CSc1ccccn1
 : 0.95	-0.32
- CN1CCN(c2nc(-c3ccncc3)nc3ccccc23)CC1
 : 1	0.012
- CCc1ccc2oc(-c3ccc(NC(=O)c4ccc(C)c(Cl)c4)cc3)nc2c1
 : 0.97	-0.45
- Cc1ccc(S(=O)(=O)Nc2c(Cl)cc(Cl)c3cccnc23)cc1
 : 1	0.92
- Cc1nnc(NCc2n[nH]c(=O)c3ccccc23)c2ccccc12
 : 1	0.8
- Cc1cc(C)cc(NC(=O)c2csc3c2CCCC3)c1
 : 1.2	8.5
- Cc1cc(N2CCC(C)CC2)nc2ccc(NC(=O)Cc3ccc(Cl)cc3)cc12
 : 1	0.51
- COc1cccc(Nc2cc(C)nc3ccc(Cl)cc23)c1
 : 0.73	-0.31
- Cc1ccc(S(=O)(=O)c2cn(CC(=O)Nc3ccc(F)cc3)c3cc4c(cc3c2=O)OCO4)cc1
 : 0.9	-1.5
- COc1ccc(Nc2cc(C(=O)NCCCSC3CCCCC3)c3ccccc3n2)cc1OC
 : 1	0.34
- Cc1ccc(S(=O)(=O)Nc2ccccc2CNc2c(C)cc(C)cc2C)cc1
 : 0.97	-0.77
- O=C(CC1Nc2ccccc2NC1=O)Nc1ccc(Cl)cc1 (stereo not drawn)
 : 0.86	-0.33

# Not a retest: entries from further up.
# Each structure is followed by: CBX7 inh	CBX7 inh z-score
- Cc1nc(N2CCCCC2)c2c3c(sc2n1)CCCC3
 : 0.95	-0.51
- CCCCc1ccc(Nc2nc(CC(=O)O)cs2)cc1
 : 0.81	-0.74

# More structures follow.
# Each structure is followed by: CBX7 inh	CBX7 inh z-score
- CCN(CCCNS(=O)(=O)c1ccc2c(c1)CCN2C(=O)C1CCC1)Cc1ccccc1
 : 0.98	-0.43
- COc1ccccc1Cc1noc(/C=C/c2ccccc2Cl)n1
 : 1.5	4.4
- COc1ccc(N(CC(=O)Nc2cccc(OC)c2)S(=O)(=O)c2ccc(C)cc2)cc1
 : 1.1	0.48
- O=C(Nc1ccc2c(c1)OCCO2)[C@@H](c1ccccc1)N1Cc2ccccc2C1=O
 : 0.92	-2.3
- Cc1ccccc1N(C)C(=O)Cn1ncc2c1-c1ccccc1OC2
 : 0.88	-3.4
- Cc1nn(-c2ccccc2)c(Cl)c1C(=O)NC1CCCCC1
 : 1.1	0.74
- Cc1noc(C(=O)N2CCN(c3ccccc3)CC2)c1Cl
 : 1	0.65
- CCN1CCCC1CNC(=O)CCCNC(=O)Cn1cnc2sc(C)c(C)c2c1=O (stereo not drawn)
 : 1	0.52
- O=C(NCC1COc2ccccc2O1)C1CCN(S(=O)(=O)c2cccc3nsnc23)CC1 (stereo not drawn)
 : 1	0.36
- Cc1ccc(C2C(=O)N(C3CCCCC3)CC(=O)N2CCc2ccccc2Cl)cc1 (stereo not drawn)
 : 1.1	0.35
- CCN(CC)CCNC(=O)c1cc2c(-c3cccc(OC)c3)nn(C)c2s1
 : 0.99	-0.099
- CCn1c(C(=O)O)c(CC(=O)N2CCC(C(N)=O)CC2)c2ccccc21
 : 0.97	-0.7
- CCOC(=O)c1oc2ccccc2c1NC(=O)c1ccc(OCC)cc1
 : 1	1.6
- O=C(NCc1ccccn1)c1cc(Nc2cccc(C(F)(F)F)c2)nc2ccccc12
 : 1.1	4.1
- Cc1ccc(C)c(CN2C(=O)c3ccccc3Sc3ccc(C(=O)NCC4CCCO4)cc32)c1 (stereo not drawn)
 : 1	-0.084
- Cc1ccccc1NC(=O)c1cnn(-c2ccccc2)c1C1CCN(C(=O)OC(C)(C)C)CC1
 : 0.79	-2.2
- CN1CCN(C(=O)c2cc(-c3cccc(Cl)c3)on2)CC1
 : 0.98	-0.57
- Cc1ccc(CCNC(=O)Cc2ccc(NC3=NC4CS(=O)(=O)CC4S3)cc2)cc1 (stereo not drawn)
 : 1.1	1.4
- Cc1ccccc1-c1nc(-c2ccc(NC(=O)c3cccnc3)cc2)no1
 : 1	0.35
- CCOc1ccc(S(=O)(=O)c2cn(Cc3cccc(F)c3)c3ccc(OCC)cc3c2=O)cc1
 : 0.94	-2.2
- COc1cccc(CN2CCN(Cc3ccc(SC)cc3)CC2)c1OC
 : 0.86	-1.7

# Assay outcomes from PubChem BioAssay.
